Bioassay records as filed in PubChem BioAssay.
AID504770 – growth inhibitors of E. coli YBA685 in a screen for V. cholerae RctB (chromosome II replication) inhibitors; E. coli YBA685 rctB-dependent plasmid, OD600 growth, 3 h; hits give low values; z-score (test concentration not listed); 130,000 tested, 0.27% active;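 active = z-score under -2 on both plates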;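 note: wells of about 30 µL received 100 nL stock; score is relative to mean and SD of the test wells; the first replicate is given; strong numbers were not always called active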
CapD inh – CapD enzyme inhibition | 140,000 tested, 0.23% active | purified CapD enzyme, fluorescence intensity read-out; hits give low values; some hits fall short of the stated cut | z-score (test concentration not listed);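 active = z-score under -4 in either of two replicates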;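 note: stock transfer was 100 nL into about 40 µL; score is relative to mean and spread of the plate; one replicate is shown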
Active calls of the source: *; . = no result given.

| SMILES | AID504770 | CapD inh |
| --- | --- | --- |
| O=C(NCCc1c[nH]c2ccccc12)OCc1ccccc1OC(F)(F)F | . | -0.69 |
| CC(=O)N(CCC(c1ccc(C)cc1)c1ccco1)Cc1cccs1 (centres undefined) | -0.15 | . |
| COc1ccc(OCC(O)CNC(=O)Nc2ccc(OC(F)(F)F)cc2)cc1 (centres undefined) | -1.1 | 0.49 |
| O=C(O)CSc1ncnc2sc3c(c12)CCCC3 | -0.5 | 5.8 |
| Cc1nn(-c2ccccc2)nc1C(=O)N(C)CCc1ccccn1 | -2.2 | 1.1 |
| CC(=O)Nc1ccc(N/C(C)=C/C(=O)c2cccnc2)cc1 | 1 | -4.1* |
| CCOC(=O)C1CC2CN(S(=O)(=O)c3ccc(C)cc3)CC(C1)C2=O (centres undefined) | . | -0.11 |
| NC1=NC(=O)C(Cc2cccc(Cl)c2)S1 (centres undefined) | -0.85 | -0.11 |
| Nc1cc(=O)n2c(n1)SCC2CS(=O)(=O)c1ccccc1 (centres undefined) | -1.1 | 1 |
| Cc1sc2c(c1C)C(=O)NC1(N2)C(=O)N(Cc2ccccc2F)c2ccccc21 (centres undefined) | . | 0.91 |
| COc1cc(-c2cc(C(=O)NN=C3CCN(C(C)=O)CC3)c3ccccc3n2)cc(OC)c1OC | -0.45 | . |
| CCCCC(=O)NCc1ccccc1Cl | -1.3 | -0.6 |
| COc1ccc(Br)cc1C1C(N2C(=O)c3cccc([N+](=O)[O-])c3C2=O)C(=O)N1c1ccc(C)c(Cl)c1 (centres undefined) | . | -0.3 |
| Cc1nnc(SCC(=O)NC(=O)c2cccn2C)n1Cc1ccccc1 | -0.35 | . |
| CCCc1cc(=O)oc2cc(O)ccc12 | . | 107 |
| CN(C)C1(CNCc2nc3ccccc3c(=O)[nH]2)CCCCC1 | 0.35 | . |
| COc1ccccc1N1C(=O)/C(=C/c2ccc(-c3ccc(Br)cc3)o2)C=C1c1ccccc1 | . | 0.035 |
| Cn1nc(-c2ccccc2)cc1NS(=O)(=O)c1ccc(C#N)cc1 | -0.9 | -0.7 |
| COc1cccc(CNS(=O)(=O)c2cc(OC)ccc2OC)c1 | -1.3 | . |
| Clc1ccc(-c2cnc(N3CCN(Cc4ccccc4)CC3)nc2)cc1 | . | -0.36 |

Three entries out of the list, arranged by count of non-hydrogen atoms, ascending:
| SMILES | AID504770 | CapD inh |
| --- | --- | --- |
| O=C(O)CSc1ncnc2sc3c(c12)CCCC3 | -0.5 | 5.8 |
| Cn1nc(-c2ccccc2)cc1NS(=O)(=O)c1ccc(C#N)cc1 | -0.9 | -0.7 |
| COc1cc(-c2cc(C(=O)NN=C3CCN(C(C)=O)CC3)c3ccccc3n2)cc(OC)c1OC | -0.45 | . |

Some of the entries above, reformatted.
COc1ccc(Br)cc1C1C(N2C(=O)c3cccc([N+](=O)[O-])c3C2=O)C(=O)N1c1ccc(C)c(Cl)c1 (centres undefined)
  AID504770: .	CapD inh: -0.3

Cc1nnc(SCC(=O)NC(=O)c2cccn2C)n1Cc1ccccc1
  AID504770: -0.35	CapD inh: .

Next section
| SMILES | AID504770 | CapD inh |
| --- | --- | --- |
| CCOc1ccc(-c2nnc(Nc3ccc(OC)cc3)c3ccccc23)cc1 | -0.5 | -0.58 |
| Cc1[nH]c2ccccc2c1SCC(=O)Nc1nccs1 | 1.6 | . |
| COc1ccccc1-n1c(=S)[nH]c2c(sc(=S)n2-c2ccc(C)c(C)c2)c1=O | . | -1.6 |
| O=C(Nc1cc2c(n(Cc3ccco3)c1=O)CCCC2=O)c1cccc(Cl)c1 | . | -0.67 |
| N#Cc1nc(N)nc(N(c2ccccc2)c2ccccc2)n1 | 0.35 | 0.28 |
| CC1=CC=CC(=C(C2C(=O)N(C)C(=O)N(C)C2=O)C2C(=O)N(C)C(=O)N(C)C2=O)C1=O | 1.3 | 0.12 |
| C(=Nc1cnc2ccc3ccccc3c2c1)c1ccco1 | 0.3 | -0.23 |
| O=C1c2ccccc2-c2c1cccc2C(=O)N(CCO)CCO | 1.4 | -0.51 |
| Cn1cccc1C(=O)c1cccc(Br)c1 | -0.55 | . |
| O=C(Cn1c(=O)c2cccn2c2ccccc21)NCc1ccccc1 | 0.5 | 0.08 |
| N#CCC1(C#N)CCCc2ccccc21 (centres undefined) | -0.8 | 0.075 |
| CC(CCc1ccco1)NC(=O)Cn1ncc2c(Cl)cccc21 (centres undefined) | 0.75 | 0.6 |
| COc1cc(C2CC(=O)Nc3c2ccc2ccccc32)cc(OC)c1OC (centres undefined) | . | -0.28 |
| N#Cc1cc2c(nc1S(=O)(=O)Cc1ccccc1)CCCC2 | 3 | . |
| Cc1ccsc1/C=N/c1sc2c(c1C#N)CCCC2 | -0.3 | 0.27 |
| CC1(C)CC2(CC(C)(C)NC(=O)N2)NC(=O)N1 | -0.15 | . |
| O=C(O)c1ccccc1C(=O)N1CCN(Cc2ccccc2)CC1 | -0.8 | -1 |
| CS/C(N)=N\N=C(/C)c1cc2ccccc2o1 | -0.35 | -3.6 |
| Clc1cc(Cl)c(Cl)cc1Cl | . | 0.46 |
| CSc1ccc(C(=O)Nc2sccc2C#N)cc1 | -1 | . |
| CNCC(=O)N1CCCC1 | 0.2 | . |
| Cc1cccc(NC(=O)C(Cc2ccccc2)N2Cc3ccccc3C2=O)n1 (centres undefined) | 0.15 | -0.14 |
| O=C(C1CC2C=CC1C2)N1CCCc2ccccc21 (centres undefined) | -0.2 | . |
| CCOc1ccc(C2C(C#N)=C(C(=C=[N-])C#N)NC(O)(C3CC3)C2[n+]2ccc(C)cc2)cc1 (centres undefined) | . | 0.89 |
| COC(=O)C1=C(N)c2c(F)cccc2C1(C#N)c1ccccc1 (centres undefined) | 0.4 | 77 |
| CCC(C)C(=O)NCCc1ccccc1 (centres undefined) | -0.4 | 0.29 |
| CCCNC(=O)Cn1cnc2sc(C(=O)N3CCC(Cc4ccccc4)CC3)c(C)c2c1=O | 0.95 | 1 |
| N#Cc1c(NC(=O)CCn2cnc3ccccc3c2=O)oc(-c2ccccc2)c1-c1ccccc1 | 0.55 | 6.1 |
| CCN1C(=O)NC(c2ccc(Cl)cc2)C(C(=O)OC)=C1C (centres undefined) | 0.6 | 0.22 |
| Cc1oc2ccc(OC(=O)N3CCOCC3)cc2c1C(=O)OC(C)C | 0.7 | -0.3 |
| NS(=O)(=O)c1ccc(NC(=O)CSc2nnc(NC(=O)CN3CCCCC3)s2)cc1 | . | -0.3 |
| COC(=O)CC1C(=O)NCCN1C(=O)CSc1nnc(Nc2ccc(OC)cc2)s1 (centres undefined) | -0.45 | . |
| CS(=O)(=O)c1ccc(-n2cc(-c3ccc(C(=O)NCc4cccc(C(F)(F)F)c4)cn3)cn2)cc1 | . | 13 |
| CSc1ccccc1NC(=O)c1ccccc1 | -0.4 | . |
| COCCOc1cc(-n2nnnc2-c2ccccc2Cl)c(Cl)cc1Cl | . | -0.2 |
| O=c1oc2c(-c3cc(C(F)(F)F)ccc3Cl)cc(O)cc2s1 | -0.75 | -0.54 |
| CSc1nsc(SC)c1C(=O)Nc1ccc(-c2csnn2)cc1 | 0.5 | -1.2 |
| Cc1ccc(NC(=O)CN(C)C(=O)CSc2nc3ccccc3c(=O)n2CCO)cc1 | 0.15 | . |
| Cn1nc(C(=O)NCCCN2CCN(c3ccccc3)CC2)c2c1-c1ccccc1OC2 | 0.3 | 0.66 |
| COc1cccc(NC(=O)CSc2nnnn2C(C)C)c1 | -0.15 | . |
| CC(C)(C)C(=O)Nc1oc(-c2ccccc2)c(-c2ccccc2)c1C#N | -1.5 | . |
| COC(=O)c1ccccc1NS(=O)(=O)c1c(C)nc2sccn2c1=O | -1.1 | -1.9 |
| O=C(NC(c1ccccc1)c1ccccc1)C1COC2C=CC=CC2O1 (centres undefined) | -0.95 | 0.3 |
| c1cnn(-c2cncc(-n3cccn3)n2)c1 | 1.8 | 13 |
| CC1CN(Cc2nnc(-c3ccccc3)o2)CC(C)O1 (centres undefined) | 1.4 | -0.8 |
| COc1ccc2cc(OC)ccc2c1 | -0.35 | 4.9 |
| COc1cc(OC)cc(N2CCN(C(=O)OCCCNC(=O)OC(C)(C)C)CC2)c1 | . | -0.82 |
| O=C(/C=C1\Sc2ccccc2NC1=O)NCc1ccc2c(c1)OCO2 | 2.7 | -0.51 |
| CC1(C)CC(=O)C2=C(C1)Nc1ccccc1N(C(=O)Cc1ccc(Cl)cc1)C2c1cccs1 (centres undefined) | . | 2.4 |
| Cc1occc1-c1nnc(SCc2ccc(C(C)(C)C)cc2)n1N | 0.35 | . |
| O=C(N/N=C/c1ccncc1)c1ccc(Cn2nnc(-c3ccccc3)n2)cc1 | 0.25 | . |
| CNc1ccc(C2(O)C(=O)c3ccccc3C2=O)cc1 | -0.6 | 0.48 |
| O=S1(=O)N(Cc2ccccc2)CCCN1Cc1ccc(Cl)cc1 | 0.35 | -1.1 |
| CCOC(=O)c1noc2ncnc(N(Cc3ccco3)C3CCN(C)CC3)c12 | -0.05 | 0.46 |
| CCC(=O)N1CCc2cc(S(=O)(=O)NC(C(=O)N3CCN(c4ccc(F)cc4)CC3)C(C)C)ccc21 (centres undefined) | 0.25 | -2.1 |
| CCOC(=O)c1cnc2cc(C)nn2c1-c1ccccc1 | -0.7 | -0.94 |
| C=CCn1c(=S)sc2c(N(Cc3ccccc3)Cc3ccccc3)ncnc21 | 0.25 | -1.2 |
| Fc1ccc(CSc2nncn2NCc2ccc3c(c2)OCO3)cc1 | -0.3 | . |
| O=C(Nc1cccc(F)c1)c1ccccn1 | 0.15 | . |
| Cc1noc(C)c1CSc1ccc(S(=O)(=O)N(C)C)cn1 | -0.3 | . |

One compound at a time, as listed above. Order of screens: AID504770	CapD inh
Entry for CCN1C(=O)NC(c2ccc(Cl)cc2)C(C(=O)OC)=C1C (centres undefined) : 0.6	0.22
Entry for CCCc1cc(=O)oc2cc(O)ccc12 : .	107

Following part:
| SMILES | AID504770 | CapD inh |
| --- | --- | --- |
| CCOC(=O)C1=C[C@@H](OC(CC)CC)[C@H](NC(C)=O)[C@@H](N)C1 | 0 | . |
| COc1ccc(-c2cc(O)c3c(C)oc(C)c3c(=O)c2)cc1 | 0.2 | 1.6 |
| CC(C)N(CCc1ccncc1)C(=O)Nc1ccc(F)cc1 | -0.35 | -0.96 |
| O=C(CN1C(=O)C2CC=CCC2C1=O)NCc1ccccc1F (centres undefined) | -0.5 | . |
| N#C/C(=C\Nc1cccc(C(F)(F)F)c1)c1nc(-c2cc3cc([N+](=O)[O-])ccc3oc2=O)cs1 | . | -0.12 |
| O=C1/C(=C/c2ccc(Cl)cc2)SC(=Nc2ccccc2)N1N1CCOCC1 | -0.7 | . |
| CC(=O)OC1=CC=CNC1=C(C#N)C#N | -0.7 | 7.4 |
| COc1ccc(CCNC(=O)Cn2nnc(C(=O)Nc3cccc(C)c3C)c2N)cc1OC | -0.55 | 0.89 |
| CC1=C(c2cccc(Cl)c2)S(=O)(=O)NC1=O | -1.6 | -0.7 |
| CCOC(=O)c1cc(-c2c(Cl)cccc2Cl)no1 | -1.1 | 0.065 |
| COC(=O)c1cc(-c2cccc(OC)c2)c2c(=O)[nH]c(=O)n(C)c2n1 | -0.85 | 24 |
| O/N=C/c1ccc2cccc(O)c2n1 | -0.4 | -0.33 |
| COc1cc(NC(=S)N(C)CCC#N)c(OC)cc1Cl | 0.9 | -0.065 |
| COC(=O)C1=C(C)OC(N)=C(C#N)C1c1ccccc1OC(=O)c1ccccc1Cl (centres undefined) | . | 0.95 |
| Nc1cccnc1Nc1ccccc1 | 0.25 | 31 |
| CC(C)(CN1CCCCCC1)NS(=O)(=O)c1ccccc1 | 3.2 | 0.015 |
| CCOC(=O)COc1ccc(/C=c2\sc3n(c2=O)C(c2cccs2)C(C(=O)OCC)=C(C)N=3)cc1OCC (centres undefined) | . | 0.19 |
| Cc1cc(NC(=O)COC(=O)c2cc(-c3ccco3)nc3ccccc23)n(-c2ccccc2)n1 | 0.45 | . |
| CC1=C(C(=O)OCC2CCCO2)C(c2cccc(OCc3ccccc3)c2)C2=C(CC(C)(C)CC2=O)N1 (centres undefined) | . | 12 |
| CC(=O)Nc1ccc(C(=O)CSc2nnc3scc(-c4ccccc4)n23)cc1 | 0.2 | . |
| CCOC(=O)c1c(NC(=O)CN2C(=O)CCSc3ccccc32)sc2c1CCCC2 | -0.7 | 7.4 |
| CCCCCOc1ccc(NC(=O)C2OC3OC(C)(C)OC3C3OC(C)(C)OC23)cc1 (centres undefined) | . | -0.035 |
| Cc1cc(C)c(S(=O)(=O)NCC(=O)NC2CC2)c(C)c1 | -0.3 | 0.42 |
| COc1ccc(Cc2c(O)nc(N)[nH]c2=O)cc1 | -0.35 | 3.4 |
| C(/C=C/c1ccc2c(c1)OCO2)=Nc1ccc(N2CCOCC2)cc1 | 0.2 | 0.22 |
| Nc1nc(-c2ccccc2)cc(-c2ccccc2)n1 | 1.8 | 68 |
| CCOC(=O)N1CCN(S(=O)(=O)c2ccc(C(=O)Nc3cccc(-c4nc5ccccc5[nH]4)c3)cc2)CC1 | . | -0.34 |
| CCc1cccc(CC)c1NC(=O)COC(=O)c1ccncc1 | -0.3 | 1.4 |
| COc1ccc(NC(=C(C#N)C#N)C(F)(F)C(F)(F)F)cc1 | -1.8 | 3.6 |
| CC(=O)C1=NN(c2ccccc2C)C2(S1)SC(c1ccccc1C)(c1ccccc1C)c1ccccc12 (centres undefined) | . | -0.18 |
| CCN1CCN(c2ncnc3sc(C(=O)NC4CCCCC4)c(C)c23)CC1 | . | 0.81 |
| COCCN1C(=O)C(=O)/C(=C(/O)c2ccccc2)C1c1ccccc1OC (centres undefined) | . | -0.7 |
| O=C(CNS(=O)(=O)c1cccs1)NC1CCCc2ccccc21 (centres undefined) | 1.1 | 0.62 |
| Nc1c(C(=O)Nc2ccc3ccccc3c2)sc2nc3c(cc12)CCC3 | -0.45 | -0.49 |
| Cc1[nH]c2ccc(C(=O)NC3CC3)cc2c1C | 0.3 | 0.59 |
| Cc1oc2cc3oc(=O)c(CC(=O)NCCc4ccccc4)c(C)c3cc2c1C | 0.15 | 2.5 |
